Tg IFNy HTS = T. gondii growth inhibition with IFN-gamma, primary screen, cell-based | Toxoplasma gondii growth in IFN-gamma-treated host cells; hits give low values; reference of the scale not given here | AID 1259416, 2018 | activity change, negative = inhibition, %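 (about 20 µM by stock and volumes)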 | 3.8% of 69,000 active;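 active = below -70%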;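 also: host cells are HeLa cells infected with Toxoplasma gondii; parasite growth read as luciferase light; one replicate is shown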
Active calls of the source: *; & = joins results of further samples. This is a subset. The share of hits here may be higher or lower than overall.

SMILES | Tg IFNy HTS
CN1C(=O)CN=C(c2ccc(Cl)cc2)c2cc(Cl)ccc21 | -5
CN1[C@H]2CC[C@@H]1CN(C(=O)c1cc(=O)[nH]c(=O)[nH]1)CC2 | 4
CCC(C)N1CCC2(CC1)C(=O)N(c1cncnc1)c1ccccc12 (stereo unspecified) | -44
COc1c(F)ccc(CN(C)C(C)Cc2cc(C)ccn2)c1F (stereo unspecified) | -9
COCCN1CCN(Cc2ccncc2)c2ncccc2C1 | -3
c1cnc(NC[C@@H]2OC[C@@H]3CN(Cc4ccco4)CC[C@@H]32)nc1 | -3
COCCN1CCN(Cc2nccs2)Cc2cccnc21 | 204
Cc1c(N2C(=O)[C@@H]3[C@H](O)CCN3C2=O)ccc(C#N)c1Cl | 15
O=C(O)C(=O)CBr | 13
C1=C2CCCN[C@H]2[C@@H]2C[C@H]1[C@H]1CCCCN1C2 | 10
NCC(CS(=O)(=O)O)c1ccc(Cl)cc1 (stereo unspecified) | 12&15
CC[N+](CC)(CCCNC1=CC(=O)C(NCCC[N+](CC)(CC)Cc2ccccc2)=CC1=O)Cc1ccccc1 | -3
c1ccc(CN2C[C@@H]3CN(CC4CC4)C[C@H]3C2)nc1 | 67
Cn1cc(CN2CC3(CCN(C(=O)c4cccnc4)C3)C2)cn1 | -5
Cc1ccc(CN2CCOC3C(COc4ncccn4)CCC32)o1 (stereo unspecified) | 7
CN1CCO[C@H]2CN(c3ncccn3)C[C@@H]21 | -6
Cc1cc(CC(C)NCC(=O)Nc2cnccn2)n[nH]1 (stereo unspecified) | 8
CSc1ccc(C(=O)C(C)(C)N2CCOCC2)cc1 | -3
Cc1ccc2c(c1)C1(CCN(CCc3nc(-c4ccccc4)oc3C)CC1)OC(=O)N2 | 1&-9
O=C(O)CN1C2CCC1CN(Cc1cccs1)C2 | 90
CCOC(=O)Nc1ccc(NCc2ccc(F)cc2)cc1N | 15
O=C(O)CN1CCCC2(COCCN(Cc3ccccn3)C2)C1 (stereo unspecified) | 3
CCc1ccc(NC(=O)c2c(O)c3cccnc3n(Cc3ccccc3)c2=O)cc1 | 30
Cc1ccc(C)c(NC(=O)c2cc3cccnc3n(Cc3ccccc3)c2=O)c1 | -1
Cc1ccc(-n2cc(C3=CCN(CCn4cccn4)CC3)cn2)c(C)c1 | 1
CC(=O)c1cccc(CN2CCN(Cc3cccc(F)c3)CC2)c1 | -3
Cc1nc2c(c(=O)[nH]1)CC1CCC(C2)N1C(=O)C(C)n1nc(C(F)F)cc1C (stereo unspecified) | 5
C/C=C/c1ccc([C@H]2[C@H](CO)N3CCCCN(C(=O)Cc4cccnc4)C[C@@H]23)cc1 | -19
O=C(NC(=O)c1c(F)cccc1F)Nc1cc(Cl)c(OC(F)(F)C(F)C(F)(F)F)cc1Cl (stereo unspecified) | -76*
FC(F)(F)c1nnc(N2CCNCC2)s1 | 17
COCC(=O)N1C[C@@H]2c3ccccc3CN[C@@H]2C1 | 32
Cc1ccccc1CN1CCC(N2CCC(n3c(=O)[nH]c4ccccc43)CC2)CC1 | 6
c1ccc(COC[C@@H]2CCC3C(CCN3Cc3ccoc3)O2)nc1 (stereo partly specified) | -3
Cc1cccc(CN2C[C@H]3CN(C(=O)c4cnccn4)C[C@@H]3C2)n1 | 2
NC(=S)N/N=C/c1coc2ccccc2c1=O.[Cl][Cu][Cl] | 78
COc1cccc(NC(=O)c2cc3cccnc3n(Cc3ccc(F)cc3)c2=O)c1 | 25
Cc1ccc(S(=O)(=O)NC(Cc2cnc[nH]2)C(=O)O)cc1 (stereo unspecified) | 35
COc1cc(C)c(CN2C3CCC2c2cnc(C)nc2C3)cc1C (stereo unspecified) | 134
CCN1C[C@@H]2c3nc(Nc4ccccc4)ncc3CS(=O)(=O)[C@H]2C1 | 8
CN(C)CC#Cc1ccc([C@@H]2[C@@H](CO)N3CCCCN(C(=O)Cc4ccccn4)C[C@H]23)cc1 | -12
Cc1ccc(NC(=O)c2cc3cccnc3n(Cc3ccccc3F)c2=O)cc1Cl | 39
Cc1nc(CN2CC3CN(Cc4ccccn4)CC3C2)cs1 (stereo unspecified) | -2
Cc1ccc(NC(=O)c2cc3cccnc3n(Cc3ccccc3F)c2=O)cc1F | 49
N[C@H](CO)Cc1ccccc1 | 2
CCC1CN(Cc2c(OC)ccc(F)c2F)CCN1C(C)C (stereo unspecified) | 4
Cc1ncsc1CCN(C)C(=O)c1cn(C)c2ccccc12 | -7
COc1cc2c3cc1Oc1c(OC)c(OC)cc4c1[C@@H](Cc1cccc(c1)Oc1ccc(c(O)c1)C[C@@H]3N(C)CC2)N(C)CC4 | 14
CN1CCC2OCCCC2(COc2ncccc2F)C1 (stereo unspecified) | -4
CN1C[C@@H]2CC[C@H](CC1=O)N2Cc1cnc(-c2ccco2)nc1 | 4
COc1ccc2c(c1OC)CN1CCc3cc4c(cc3C1C2)OCO4 (stereo unspecified) | 18
Cc1noc(C)c1C(=O)N1C[C@@H]2CCN[C@@H]2C1 | 58
CCN(CC)CCOC1CCC2(C)C(=CCC3C4CCC(=O)C4(C)CCC32)C1 (stereo unspecified) | -51
CS(=O)(=O)c1ccc(-n2ncc3c2CC2CCC3N2C(=O)CCc2ccccc2)cc1 (stereo unspecified) | 26
O=C1CO[C@H]2CNC[C@@H]2N1CC1CCCC1 | -4
O=C1c2ccccc2C(=O)N1c1ccc2c(C(F)(F)F)cc(=O)oc2c1 | -7
Cc1cccc(CN2CCCC3(CCN(CCF)C3)C2)n1 (stereo unspecified) | 175
CCOc1ccccc1CNC(=O)c1nc(C)n(C2CCN(C)CC2)c1C | -24
C=CCN1C[C@H]2CN(c3cc(OC)ncn3)CCC[C@]2(C(=O)O)C1 | 37
C=CCOC1C2CCC1N(Cc1csc(C)n1)C2 (stereo unspecified) | 79
c1cncc(COC2CC3CN(Cc4cccs4)CCN3C2)c1 (stereo unspecified) | 17
Continuation:
SMILES | Tg IFNy HTS
CSc1ccccc1NC(=O)c1cc2cccnc2n(Cc2ccc(F)cc2)c1=O | 82
CC(=O)N(C1=NCCCS1)c1ccccc1Cl | -4
Cc1ccc(C)c(NC(=O)c2cc3cccnc3n(Cc3ccccc3F)c2=O)c1 | 91
O=C(O)CNC(=O)c1c(O)c2ccccc2n(Cc2ccccc2)c1=O | -35
CN(C)c1ncc2c(c1C(=O)O)CCN(S(=O)(=O)C1CC1)C2 | 1
CC(C)CN1CC[C@H]2[C@@H]1CCN2c1ncccn1 | 17
CCn1cnnc1CCNC(C)Cc1ccccc1F (stereo unspecified) | 7
CCc1cnc(C)nc1N(C)Cc1cnc(NC)nc1 | -10
CC(C)N(C)C(=O)C1CCC2(CCNCC2)O1 (stereo unspecified) | -1
O=C(O)CN1CCOCC2(CC(CNc3ccccn3)CO2)C1 (stereo unspecified) | 94
O=C(NCc1cccs1)c1c(O)c2cccnc2n(Cc2ccccc2)c1=O | -111*
Cc1noc(C)c1CN1CC[C@@H]2C[C@@H](C(=O)NC(C)C)O[C@@H]2C1 | -2
Cc1cc(Br)ccc1NC(=O)c1cc2cccnc2n(Cc2ccccc2)c1=O | 42
CC[C@@H](CO)NC(=O)[C@@H]1C=C2c3cccc4[nH]cc(c34)C[C@H]2N(C)C1 | 21&12
COCCN1CCN(S(=O)(=O)C2CC2)Cc2ccc(C)nc21 | -3
O=c1c2ccccc2[se]n1-c1ccccc1 | 73&7
Cc1cnc(N2CCN3C[C@H](OCC4CC4)C[C@@H]3C2)nc1 | -15
NC(Cc1ccccc1)Cc1ccccc1 | -49
CN(CCc1ccccn1)C(=O)C1CC2(CCNCC2)CN1 (stereo unspecified) | -66
CN(C)C(=O)c1ccc(-c2cccc3c2CCNC3)nc1 | 45
CC(C)S(=O)(=O)N1CCCC2(CCNC2)C1 (stereo unspecified) | 12
CCc1cnc(N2CCC3C(C[C@@H](CN(C)C)N3C)C2)nc1 (stereo partly specified) | -31
c1cnc(NC2COC3(CCCN(CC4CCOCC4)C3)C2)nc1 (stereo unspecified) | 2
COc1ccc(C(O)(C(=O)O)c2ccccc2)cc1 (stereo unspecified) | 60

Entries shown so far with bromine, in the order listed:
SMILES | Tg IFNy HTS
O=C(O)C(=O)CBr | 13
Cc1cc(Br)ccc1NC(=O)c1cc2cccnc2n(Cc2ccccc2)c1=O | 42

Some of the entries so far, with each value named:
compound: CCc1ccc(NC(=O)c2c(O)c3cccnc3n(Cc3ccccc3)c2=O)cc1
  Tg IFNy HTS: 30

compound: Cc1ccc(C)c(NC(=O)c2cc3cccnc3n(Cc3ccccc3)c2=O)c1
  Tg IFNy HTS: -1

Among those listed so far, these have a thiophene ring, fused or not:
SMILES | Tg IFNy HTS
O=C(O)CN1C2CCC1CN(Cc1cccs1)C2 | 90
c1cncc(COC2CC3CN(Cc4cccs4)CCN3C2)c1 (stereo unspecified) | 17
O=C(NCc1cccs1)c1c(O)c2cccnc2n(Cc2ccccc2)c1=O | -111*

New compounds follow
SMILES | Tg IFNy HTS
C=CCOC1C2CCC1N(Cc1cccc(C)n1)CCO2 (stereo unspecified) | -71*
CC(Cc1ccccn1)N(C)Cc1ncc[nH]1 (stereo unspecified) | 16
Cc1ccccc1NC(=O)CC(=O)N1C[C@H]2C[C@@H](C1)c1cccc(=O)n1C2 | 4
Oc1ccc2c3c1O[C@H]1c4[nH]c5c(c4C[C@@]4(O)[C@@H](C2)N(CC2CC2)CC[C@]314)C[C@@]1(O)[C@H]2Cc3ccc(O)c4c3[C@@]1(CCN2CC1CC1)[C@H]5O4 | 12
Cc1nc(CN2C[C@H](c3ccccc3)[C@@H]3[C@H]2C2CCN3CC2)co1 | 1
CCCN(CCC)[C@@H]1CCc2cccc(O)c2C1 | 10
Cc1oc(-c2ccccc2)nc1CN1C(=O)CN=C(c2ccc(F)cc2)c2c1sc(C)c2C | -40
O=C(Cc1ccccc1)OCCN1CCCCC1 | 19
O=C(Nc1cccc(F)c1)c1c(O)c2cccnc2n(Cc2ccccc2)c1=O | 107
CCN1CCC2OCCCC2(COCc2cccc(C)n2)C1 (stereo unspecified) | 80
C=CCC1(CC(C)C)C(=O)NC(=O)NC1=O | -3
Clc1cncc(Cl)c1N1CCNCC1 | 1

Entries listed so far that contain a CF3 group (three):
SMILES | Tg IFNy HTS
O=C(NC(=O)c1c(F)cccc1F)Nc1cc(Cl)c(OC(F)(F)C(F)C(F)(F)F)cc1Cl (stereo unspecified) | -76*
FC(F)(F)c1nnc(N2CCNCC2)s1 | 17
O=C1c2ccccc2C(=O)N1c1ccc2c(C(F)(F)F)cc(=O)oc2c1 | -7

Going on with the list.
SMILES | Tg IFNy HTS
CNCCc1ccc(O)c(O)c1 | 2
CC(C)=CCC[C@]1(C)C=Cc2c(O)c3c(c(CC=C(C)C)c2O1)O[C@]12C(=C[C@@H]4C[C@H]1C(C)(C)O[C@@]2(CC=C(C)C(=O)O)C4=O)C3=O | -85*
Cc1ccnc(CC(C)N(C)Cc2cccnc2NC(=O)C(C)(C)C)c1 (stereo unspecified) | -2
CN1[C@@H]2CC(O)C[C@H]1[C@@H]1O[C@@H]12 (stereo partly specified) | 16
CN1CCN2CCN(C(=O)c3cccc(=O)[nH]3)CC2C1=O (stereo unspecified) | 5
Cc1cc(C)cc(NC(=O)c2cc3cccnc3n(Cc3ccc(F)cc3)c2=O)c1 | -1
C[C@@H]1CN([C@H](C)CO)C(=O)CCCn2cc(nn2)CO[C@H]1CN(C)C(=O)Oc1ccc2ccccc2c1 | 153
C=CCC(=O)N1CCC2(CCN(C)C2)CC1 | 1
COc1ccc2c(c1)C1(CCN(C(=O)c3cnc4ccccc4n3)CC1)CC2CC(=O)O (stereo unspecified) | 1
CC(C)N1CC(C(=O)O)CN2CCN(C(=O)Cc3ccccc3)CC2C1 (stereo unspecified) | -6
CC1(C)C(=O)C=C[C@@]2(C)C1C[C@@H](O)[C@]1(C)C2CC[C@@]2(C)[C@H](c3ccoc3)OC(=O)[C@H]3O[C@]321 (stereo partly specified) | -26
CCn1ncc(C(=O)N2C[C@H]3CC[C@@H](C2)N3)c1C | -6
C=CC[C@]1(O)CCC2C3CCC4=CC(=O)CCC4=C3C=C[C@@]21C (stereo partly specified) | 0
CC(N)Cc1c[nH]c2ccc(OCc3cccs3)cc12 (stereo unspecified) | 11&8
CN1CCN2CCN(Cc3cnn4cccnc34)CC2C1 (stereo unspecified) | 1
CC(=O)Nc1cccc(NC(=O)c2cc3cccnc3n(Cc3ccccc3)c2=O)c1 | 181
CNC(=O)c1ccc(CN2CC=C(c3cnn(C)c3)CC2)o1 | -1
Cc1ccc(CNC(=O)c2cc3cccnc3n(Cc3ccccc3F)c2=O)cc1 | 40
O=C(Nc1ccc(Br)cc1F)c1cc2cccnc2n(Cc2ccccc2)c1=O | 108
O=C(NCc1cnc2ccccc2c1)C1CC2(CCNCC2)CN1 (stereo unspecified) | 4
Cc1cc2c(s1)NC(=O)CN=C2c1ccc(Cl)cc1 | 6
O=C(NCCc1cccs1)C1C2CCC1CNC2 (stereo unspecified) | 52
Cc1ccc(CN2CCOC3CNCC[C@@H]32)o1 (stereo partly specified) | 11
O=C(Nc1ccc(F)cc1F)c1cc2cccnc2n(Cc2ccccc2)c1=O | 30
C[C@@H]1CN2CCCC2CN1Cc1cnc(N2CCOCC2)nc1 (stereo partly specified) | 60
O=C(NCc1ccccc1)c1cc2cccnc2n(Cc2ccc(F)cc2)c1=O | -14
N#CC1(C(=O)NCC2CCC3(CCNCC3)O2)CC1 (stereo unspecified) | -60
CN1CC(C(=O)O)CN2CCN(C(=O)c3ccncc3F)CC2C1 (stereo unspecified) | -6
CC(C)Cc1cc(C(=O)N2CCC3(CC2)C(=O)NCCN3C)on1 | -42
CN(C)CCN1C(=O)CC[C@@H]2[C@@H]1CCN2Cc1ccccn1 | -10
CN1CCO[C@@H]2CN(Cc3ccc4ccccc4n3)C[C@H]2C1 | 9
C[C@]12N[C@H](Cc3ccccc31)c1ccccc12 | 12
